# High-throughput results as filed in PubChem.
# Menin MLL FP FL – displaces fluorescein MLL peptide from human menin; 290,000 tested, under 10 active; FP activity change, % at 61.4 µM; Fluorescence polarization, fluorescein-MLL peptide displacement from menin; AID 1766; inconclusive = falling polarisation curve, or a change in total fluorescence; inactive = total fluorescence flat and polarisation flat or rising; no compound was filed as active; the % refers to the polarisation; negative = inhibition;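 further: % of control where 0% means no effect; inhibitors lower the polarisation; unlabelled MLL peptide was the positive control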
# gsp antag – antagonists of gsp mutant (McCune-Albright syndrome). gsp-mutant cells, cAMP HTRF, 30 min; control for the full effect not named in the record. Potency, µM (doses to about 76.9 µM), for the others: top-dose activity change, negative = inhibition, actives largely listed as inhibitors. 0.4% of 340,000 active; active = falling curve of any shape with a large fitted effect; inconclusive = falling curve, mostly with a smaller effect; inactive = flat or rising curve; cell line not stated here;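 further: intracellular cAMP measured with PDE inhibitor Ro 20-1724 present during compound exposure; potency means the concentration at half of the fitted maximal effect; on the % scale 0 is the no-effect control and ±100 the full control effect; nearly all actives have a fitted effect of over 65% in size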
#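 G418-selected cells were plated in DMEM/10% FBS for 16-24 h at 37C, then treated with compounds plus the PDE inhibitor […] (300 uM solution added) for 30 min at 37C. Intracellular cAMP was measured by HTRF after 30 min lysis at room temperature.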
# ClpP mod – qHTS Assay for Activators of ClpP; 1.9% of 340,000 active; purified B. subtilis ClpP, FRET peptide cleavage, 20 min; Potency, µM (top dose mostly 57.5 µM), for the others: at the top dose activity change, negative = active; active = well fitted falling curve with a large enough effect; inconclusive = small, poorly fitted or top-dose-only effect; inactive = no such curve, though single readings can be large or run the other way; further: potency means the concentration at half of the fitted maximal effect; the source files actives as falling curves though it sought activators and does not explain the sign; nearly all actives have a fitted effect of over 65% in size; many hits overshoot -100%
# Target sequence (P80244 whole entry, looked up): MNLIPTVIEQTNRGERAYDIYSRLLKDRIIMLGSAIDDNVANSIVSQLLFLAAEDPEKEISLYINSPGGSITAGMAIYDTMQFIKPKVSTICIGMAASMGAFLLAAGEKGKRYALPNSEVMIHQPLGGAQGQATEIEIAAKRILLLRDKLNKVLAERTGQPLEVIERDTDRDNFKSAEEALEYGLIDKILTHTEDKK
#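 Purified B. subtilis ClpP, 10 microg/mL final in Tris/HCl pH8 with KCl, BSA, glycerol and Tween-20, cleaved an Abz/nitrotyrosine-quenched decapeptide. Fluorescence (ex 320, em 430) was read at 0 and 20 min at room temperature. Delta was normalized to 5.8 microM ADEP and DMSO/no-enzyme controls.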
# TRPV1 PAM – potentiators of human vanilloid receptor 1 (TRPV1); Q8NER1; TRPV1-expressing cells, Fluo-8 calcium influx, capsaicin EC20 potentiation; host cell line not named in the record; control for the full effect not named in the record; potentiation, % at 8.33 µM; 0.02% of 320,000 active; active means potentiation above 80%; inconclusive means 30% to 80%; inactive means below 30%; further: 0% is about no effect
# Target sequence (Q8NER1 whole entry, looked up): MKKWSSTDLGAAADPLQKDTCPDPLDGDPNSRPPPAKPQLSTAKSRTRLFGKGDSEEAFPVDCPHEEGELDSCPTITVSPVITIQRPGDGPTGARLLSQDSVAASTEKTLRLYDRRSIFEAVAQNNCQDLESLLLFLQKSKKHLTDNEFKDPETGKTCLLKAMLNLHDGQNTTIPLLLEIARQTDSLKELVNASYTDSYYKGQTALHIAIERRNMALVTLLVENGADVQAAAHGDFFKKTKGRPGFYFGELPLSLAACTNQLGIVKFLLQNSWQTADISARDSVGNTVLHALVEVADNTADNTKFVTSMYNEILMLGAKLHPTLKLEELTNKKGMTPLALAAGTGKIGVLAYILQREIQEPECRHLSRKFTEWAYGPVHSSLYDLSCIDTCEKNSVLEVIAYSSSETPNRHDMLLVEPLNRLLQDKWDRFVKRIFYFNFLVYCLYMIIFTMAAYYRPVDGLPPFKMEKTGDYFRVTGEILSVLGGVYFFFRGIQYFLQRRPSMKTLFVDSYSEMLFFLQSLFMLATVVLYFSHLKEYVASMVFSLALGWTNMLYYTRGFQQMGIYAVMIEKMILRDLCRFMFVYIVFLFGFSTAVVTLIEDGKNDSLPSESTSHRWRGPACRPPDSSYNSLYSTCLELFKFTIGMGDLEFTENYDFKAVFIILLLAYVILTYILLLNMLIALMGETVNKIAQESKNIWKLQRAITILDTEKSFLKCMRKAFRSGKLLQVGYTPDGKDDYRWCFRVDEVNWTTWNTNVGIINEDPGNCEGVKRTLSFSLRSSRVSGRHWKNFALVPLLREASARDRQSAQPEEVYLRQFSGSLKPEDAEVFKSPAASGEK
#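 TRPV1-expressing cells were cultured overnight at 35.5C and loaded with Fluo-8 calcium dye for 40 to 90 min at room temperature. After a 10 s baseline, compound was added and calcium influx was read kinetically for 3 min (ex 480/em 520 nm).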
# Sfp inh – blocks B. subtilis Sfp PPTase activity. Biochemical Sfp PPTase activity, qHTS. AID 1490. 3.5% of 310,000 active. Potency, µM, for the others: max response, negative = inhibition, hits mostly inhibitors; active means well fitted inhibition curve with a large enough effect; inconclusive means small, poorly fitted or top-dose-only effect, or another doubt; inactive means no such curve, though single readings can be large or run the other way;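 further: the enzyme is Sfp with the accession as filed and its product quenches rhodamine fluorescence; potency means the concentration at half of the fitted maximal effect; 0% = enzyme reaction without inhibitor and -100% = no enzyme wells; top concentration of the series not given in the record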
#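 Step 1, compound plus 15 nM Sfp-PPTase, 15 min, room temperature. Step 2, add rhodamine-CoA (5 uM) and BHQ-2-YbbR (12.5 uM). Step 3, read 525/598 nm fluorescence at 0 and 30 min.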
# D2 PAM – potentiates the human D2 dopamine receptor allosterically; P14416; DiscoveRx D2 beta-arrestin cells, luminescence, 90 min; 100% = 57 uM dopamine signal; potentiation, % (no concentration beside the values); 0.23% of 360,000 active; AID 624464; active = potentiation of 50% or more; inconclusive = 30% to 50%; inactive = 30% or less;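 further: compound concentration not given in the record; tested on top of an EC20 dose of dopamine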
#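 D2 cells co-treated with compound plus 50 nM dopamine (EC20) for 90 min at 37 deg C to detect potentiation. Beta-arrestin recruitment was read as enzyme-fragment luminescence after 1 h at ambient temperature. Full response was set by 57 uM dopamine.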
# gsp ag – gsp mutant agonism; gsp mutant cells, cAMP HTRF, 30 min; control for the full effect not named in the record; Potency, µM (series often up to 76.9 µM), for inactives: at the top dose activation (cAMP increase), usual class: activators; 0.13% of 340,000 active; active = well fitted activation curve with a large enough effect; inconclusive = small, poorly fitted or top-dose-only effect, or another doubt; inactive = no such curve, though single readings can be large or run the other way; cell line not stated here;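 further: phosphodiesterase inhibitor Ro 20-1724 added with compounds to block cAMP breakdown; potency means the concentration at half of the fitted maximal effect; nearly all actives have a fitted effect of over 60% in size; about a fifth of the inactives were tested at one dose only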
#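 Cells stably selected in G418 were plated at 2000/well, grown 16-24 hr, then given compounds in DMSO with the PDE inhibitor […] (300 uM solution added) for 30 min at 37C; cAMP was read by HTRF.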
# * marks the source's active call; other numbers are inactive results; ? = inconclusive; . = no result given; & = joins results of further samples; [ ] = remark or other dose.
SMILES,Menin MLL FP FL,gsp antag,ClpP mod,TRPV1 PAM,Sfp inh,D2 PAM,gsp ag
COc1ccc(-c2noc(COc3ccccc3OC)n2)cc1OC,4.6,-23%,0.7%,16,4%,-2,29%
COc1ccc(CNC(=O)C(c2ccco2)N(Cc2cccs2)C(=O)Cc2cccs2)cc1 (stereo not given),8.3,-21%,2.9%,-19,?,?,-2%
OCCC1CN(Cc2nc3ccc(F)cc3[nH]2)CCN1C1CCCC1 (stereo not given),-0.8,9%,-1.2%,3,15%,-7,16%
COc1cccc(NC(=O)CC2S/C(=N\S(=O)(=O)c3ccccc3)N(c3ccccc3)C2=O)c1 (stereo not given),2.0,11%,0.3%,-2,17%,-9,19%
O=C(c1ccc(CN2CCc3ccccc3C2)cc1)N1CCN(c2ccccc2)CC1,-0.8,4%,32µM*,-15,-11%,-22,?
COc1ccc(-c2cn3nc(SCC(=O)NC4CCCCC4)ccc3n2)cc1,0.4,-3%,.,4,3%,-1,5%[15.4 µM]
O=C(NNC(=O)C1COc2ccccc2O1)c1ccccc1 (stereo not given),-0.1,20%,0.4%,6,6%,-10,20%
OCc1nc2ccccc2n1CCCOc1ccccc1,-0.6,2%,1.3%,-15,0%,-22,10%
C=CCN1C(=O)C2C(C(=O)NC)C3(C)C=CC2(O3)C1C(=O)NCc1ccc(OC)cc1 (stereo not given),-1.1,14%,1.4%,9,20%,-10,3%
O=C(/C=C/c1cccs1)c1cc(Br)ccc1OC(=O)N1CCOCC1,5.6,?,0.8%,4,-8%,-3,0%
O=C(NC(=O)c1c(F)cccc1F)Nc1cccc(Oc2ncc(Cl)cn2)c1,.,16%,-2.5%,.,.,-10,-10%
Cc1cc(C(=O)NNC(=O)[C@H](C)NC(=O)c2ccc(Br)cc2)c(C)o1,.,7%,-3.3%,.,.,-3,-12%
O=C(O)C1CCC(CN(Cc2cccc(Br)c2)C(=S)Nc2ccccc2F)CC1 (stereo not given),-4.0,?,.,3,0%,-3,?
Cc1ccc(S(=O)(=O)N(C)CC(=O)N2CCCCCCC2)cc1,.,10%,.,7,.,-11,34%[15.4 µM]
CC(=O)Oc1ccc(/C=C(\NC(=O)c2ccco2)C(=O)NCc2ccccc2)cc1,.,4%,.,7,13%,-5,8%[15.4 µM]
Cc1ccc([N+](=O)[O-])cc1S(=O)(=O)Nc1ccc(O)c(Sc2ncn[nH]2)c1,.,8%,1.3%,17,45µM*,3,-9%
CCOC(=O)c1ccc(NC(=S)N2CCN(c3ccc(N4CCOCC4)nn3)CC2)cc1,1.0,1%,.,-7,-3%,3,?
O=c1c(N=Nc2ccc(O)cc2)c(-c2ccccc2)[nH]n1-c1ccc([N+](=O)[O-])cc1,1.8,7%,-0.6%,-14,11%,-15,-2%[15.4 µM]
CCOC(=O)C1=C(Nc2ccccc2)CC(C)(O)C(C(=O)OCC)C1c1ccccc1 (stereo not given),8.7,-2%,1.8%,-27,0%,-9,11%
CC(C)(C)CC(=O)Nc1ccc(-c2cn3cccnc3n2)cc1,-1.6,-5%,0.0%,1,5%,4,5%[15.4 µM]
CCOc1ccc(N(CC(=O)Nc2cc(C)cc(C)c2)S(C)(=O)=O)cc1,-0.6,-6%,-0.5%,22,12%,-5,11%
O=C(CSc1ccc2ccccc2n1)NC1CC1,.,-13%,-1.9%,-7,.,-18,16%
CN(C)c1ccc(NC(=O)Nc2cccc3ccccc23)cc1,0.2,-3%,-6.7%,16,-7%,-5,-2%
COc1ccc(S(=O)(=O)c2nnn(-c3cccc(Cl)c3)c2N)cc1,2.9,-13%,-1.4%&-3.7%,-3,13%,0,-12%
Cc1cc(N2CC(C)OC(C)C2)nc2ccccc12 (stereo not given),0.3,12%,.,-15,7%,-5,21%[15.4 µM]
Cc1[nH]c2ccc(C(=O)NC3CCC(C)CC3)cc2c1C (stereo not given),-3.8,1%,-12%,-11,12%,-17,11%
Cn1cnc([N+](=O)[O-])c1Nc1cccc(O)c1,-0.5,6%,0.3%,-2,3%,6,-65%[inhibitor]
COc1cc(C)ccc1OCCCON1C(=O)CCC1=O,-0.9,12%,-0.2%,6,18%,16,-58%[inhibitor]
Cc1cccc(C)c1OCc1n[nH]c(=S)n1-c1ccccc1,5.1,3%,0.7%,2,-21%,-6,-21%
COC(=O)c1cc2oc(C)cc2n1CC(=O)N1CCCc2ccccc21,4.5,-13%,0.3%,-11,56µM*,-1,?
CCOc1ccc(NC(=O)COc2cccc3cccnc23)cc1S(=O)(=O)N1CCCC1,.,.,-3.7%,.,.,3,-13%
Cc1ccc(-c2nn3c(C)nnc3s2)cc1NC(=O)c1ccc(Br)o1,1.9,-3%,0.6%,.,-3%,2,0%
Cc1nc2nc(COc3ccccc3)nn2c(C)c1Cl,-1.4,7%,14µM*,1,7%,3,3%
OCC[C@H]1C[C@@H](O)[C@H](O)[C@@]2(Cc3ccccc3CO2)O1,.,9%,0.9%,22,.,-7,-5%
COC(=O)c1nc2n(n1)C(c1ccc([N+](=O)[O-])cc1)C(C(=O)Nc1ccc(Cl)cc1)=C(C)N2 (stereo not given),-1.3,5%,0.2%,-17,?,-6,4%[15.4 µM]
CCOc1ccc(-n2c(SCc3cc(=O)oc4cc(C)ccc34)nnc2-c2cccnc2)cc1,4.9,-11%,-0.4%,-4,6%,?,-6%[15.4 µM]
N/C(=N\OC(=O)CC1CCCCC1)c1ccccn1,0.9,1%,-2.2%,-11,16%,3,-24%
O=C(O)c1ccc(-n2cncn2)c([N+](=O)[O-])c1,2.7,8%,.,-8,21%,-3,-40%[15.4 µM]
O=C(NN1C(=O)/C(=C/c2ccc(O)c([N+](=O)[O-])c2)SC1=S)c1ccccc1Cl,?,-22%,.,20,-9%,-9,-15%[15.4 µM]
Cn1c(CNC(=O)c2ccco2)nnc1SCC(=O)Nc1c(F)cc(F)cc1Br,-2.7,17%,4.0%,8,18%,-5,1%[15.4 µM]
CCOc1ccc(NS(=O)(=O)c2ccc(NC(=O)c3ccccc3C(=O)O)cc2)cc1,.,-9%,-0.6%,.,.,-11,-1%[15.4 µM]
COC(=O)C1=C(C)N(Cc2ccccc2)C(=NCCc2ccccn2)N[C@H]1c1cccc(C(F)(F)F)c1,-8.6,12%,-3.9%&1.4%,-13,-9%,-18,22%
Cc1nc(Nc2ccc(S(=O)(=O)N3CCCCC3C)cc2)c2nnn(Cc3ccccc3)c2n1 (stereo not given),-1.2,-7%,32µM*,-43,3%,-3,-13%
COCCn1c(-c2ccc(OC)cc2)cnc1SCC(=O)Nc1cc(C)on1,0.7,-28%,-0.7%,2,4%,-23,2%
O=C(NCc1nc2ccccc2[nH]1)C1=C[C@@H](c2csc3ccccc23)C[C@@H](OCCCCO)O1,18,-10%,-2.9%,1,5%,-8,-10%
Cc1c(NC(=O)Nc2ccc(Cl)c(Cl)c2)sc(=S)n1C,.,-30%,-1.1%,.,.,-40,?
Oc1cccc(C(=S)N2CCC(Cc3ccccc3)CC2)c1,-0.3,-5%,0.3%,-2,35µM*,-1,23%
CCOC(=O)c1ccc(NC(=S)Nc2ccccc2)cc1,0.6,13%,.,2,-24%,-5,4%[15.4 µM]
N#Cc1ccc2ccn(CC(=O)N3CCCc4ccccc43)c2c1,2.7,-8%,?,13,13%,-2,-33%[inhibitor]
O=C(O)C1CCCCN1S(=O)(=O)c1ccccc1 (stereo not given),-3.8,1%,-1.6%,1,7%,-12,-18%
O=CN1CCN(C(=O)c2ccc3c(c2)OCO3)CC1,.,13%,-2.5%,2,6%,0,-63%[inhibitor]
NC(=O)Cn1c(=O)n(CCc2ccccc2)c(=O)c2c3c(sc21)CCCC3,1.4,5%,-1.8%,4,3%,-6,?
CCOc1ccc(C(=O)N[C@H](C(=O)Nc2ccccc2OC)C(C)C)cc1,0.2,7%,.,-3,15%,-4,2%[15.4 µM]
Cc1ncsc1CCOC(=O)c1ccccc1,-1.1,8%,.,-11,4%,-9,6%[15.4 µM]
O=C(O)Cn1nnnc1-c1ccc(F)cc1,-1.7,7%,-2.2%,-3,17%,0,11%
Cc1ccc(-c2n[nH]c(=S)n2/N=C/c2c(C)nn(-c3ccccc3)c2C)cc1,-3.0,0%,-1.5%,5,-25%,8,-6%
O=c1c(Cl)c(Nc2cccc(Cl)c2)cnn1-c1nc2ccccc2s1,7.5,-26%,-1.9%,22,3%,-16,0%[15.4 µM]
COc1cccc(/C=N/NC(=O)c2ccc(N3CCCC3=O)cc2)c1,-2.1,0%,.,22,11%,-2,-70%[inhibitor]
Cc1[nH]c2ccc(Br)cc2c(=O)c1CN1CCOCC1,2.0,16%,0.1%,7,20%,-33,-2%
COCc1cc(C)nc2sc(C(=O)Nc3ccccc3C)c(N)c12,-2.6,-22%,-0.8%,-3,5%,-4,1%[15.4 µM]

# 3 of these compounds, set out differently:
Molecule	Menin MLL FP FL	gsp antag	ClpP mod	TRPV1 PAM	Sfp inh	D2 PAM	gsp ag
COc1cccc(/C=N/NC(=O)c2ccc(N3CCCC3=O)cc2)c1	-2.1	0%	.	22	11%	-2	-70%[inhibitor]
Cc1[nH]c2ccc(Br)cc2c(=O)c1CN1CCOCC1	2.0	16%	0.1%	7	20%	-33	-2%
COCc1cc(C)nc2sc(C(=O)Nc3ccccc3C)c(N)c12	-2.6	-22%	-0.8%	-3	5%	-4	1%[15.4 µM]

# (listing goes on)
SMILES,Menin MLL FP FL,gsp antag,ClpP mod,TRPV1 PAM,Sfp inh,D2 PAM,gsp ag
Cc1nc(Nc2ccccc2F)c2oc3ccccc3c2n1,-4.7,-21%,-0.5%,16,-3%,-6,6%[15.4 µM]
Fc1ccc(N2CCN(Cc3ccccn3)CC2)cc1,-2.0,4%,-4.9%,-3,?,-33,5%
COc1ccc(OC)c(NC(=O)Cc2coc3cc(C)cc(C)c23)c1,0.3,-10%,4.8%,-7,-13%,-8,7%
O=[N+]([O-])c1ccc(Oc2cccc(F)c2)c2ccncc12,3.5,7%,-2.8%,-30,-15%,-5,0%
COc1cc(/C=C(\C#N)C(=O)Nc2cccc(C(=O)O)c2)ccc1OCc1ccc(C)cc1,0.5,?,-0.4%,-2,0%,1,-8%[15.4 µM]
